Rce1 inh: yeast Ras-converting enzyme inhibition; Q03530; AID 2563; yeast membranes, quenched prenylated peptide cleavage fluorescence; 0.27% of 290,000 active; calls only;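 active = fall in fluorescence gain of 50% or more versus controls, with final raw signal at or below 3038400; inconclusive = same 50% fall but final raw signal above 3038400; inactive = fall in fluorescence gain under 50%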;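 note: plate controls were neutral control wells for no effect and wells lacking membranes for full effect; tested at 10 µM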
CSC inhib: cancer stem cell inhibition. 1.1% of 300,000 active. AID 2717. cancer stem cell-like cells viability, luminescence. inhibition, % at 7.5 µM;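 active = mean at 75% or more and at least half the replicates too; inconclusive = mean and replicates disagree; tested in HMLE shEcad cells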;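 note: 0% = median of negative and 100% = median of positive control wells; the first replicate is given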
eIF4H inh: inhibitors of RNA binding by human eIF4H. Q15056. eIF4H fluorescence polarization binding assay. inhibition, % at 35 µM. 0.94% of 290,000 active;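 active = 50% or more with normal probe brightness, or confirmed in later tests; inconclusive = above 50% with abnormal brightness, or retests that disagree; inactive = below 50% or failed in later tests; about a fifth of its hits are not listed in these tables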;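 note: calls also rest on retests at 20 µM and on dose response follow-up; 0% = protein and probe with vehicle and 100% = probe without protein; strong numbers were not always called active; many hits fall short of the cut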
PABP polyA inh: PABP-poly(A) binding inhibition | P11940 | PABP-poly(A) RNA binding, fluorescence polarization | inhibition, % at 35 µM | 1% of 290,000 active | AID 2014;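 active = 50% or more with normal probe brightness, or confirmed in later tests; inconclusive = above 50% with abnormal brightness, or retests that disagree; inactive = below 50% or failed in later tests; about a fifth of its hits are not listed in these tables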;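 note: calls also rest on retests at 20 µM and on dose response follow-up; controls were probe without protein and protein plus probe with vehicle; some compounds called inactive have numbers as strong as hits; many hits fall short of the cut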
Target sequence (P11940 whole entry, looked up): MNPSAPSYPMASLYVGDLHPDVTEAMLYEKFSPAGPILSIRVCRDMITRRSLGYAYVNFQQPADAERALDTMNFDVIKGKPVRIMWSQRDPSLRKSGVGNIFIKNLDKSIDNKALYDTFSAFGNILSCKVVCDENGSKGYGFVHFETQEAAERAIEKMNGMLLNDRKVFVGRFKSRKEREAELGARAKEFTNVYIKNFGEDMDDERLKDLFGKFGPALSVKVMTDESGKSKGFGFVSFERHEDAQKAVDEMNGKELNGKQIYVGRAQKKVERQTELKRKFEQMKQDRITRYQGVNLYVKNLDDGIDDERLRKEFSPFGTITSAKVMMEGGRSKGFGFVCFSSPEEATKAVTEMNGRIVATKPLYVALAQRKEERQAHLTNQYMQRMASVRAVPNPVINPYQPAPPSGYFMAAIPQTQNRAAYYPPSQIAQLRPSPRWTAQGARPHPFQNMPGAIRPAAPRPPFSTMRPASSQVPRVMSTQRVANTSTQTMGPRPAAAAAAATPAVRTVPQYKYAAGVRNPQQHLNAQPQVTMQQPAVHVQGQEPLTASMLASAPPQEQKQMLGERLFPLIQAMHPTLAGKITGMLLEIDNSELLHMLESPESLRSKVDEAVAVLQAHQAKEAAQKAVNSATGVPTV
Env fusion inh: HIV envelope-mediated fusion inhibition; HeLa-JRFL Env/CEM21 cell fusion, luciferase; inhibition, % at 12.3 µM; 1.1% of 360,000 active; AID 651610;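 active = mean replicate inhibition score of at least 50 and every replicate individually at or above 50; inconclusive = only one of the two criteria met; inactive = mean below 50 and not all replicates reaching 50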;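 note: 0% = plate neutral controls and 100% = maraviroc near 300 nM; one replicate is shown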
UUG fidelity: yeast start codon fidelity modulation; S. cerevisiae UUG-firefly luciferase reporter, luminescence/redox ratio; activity score, % at 18.7 µM; 0.13% of 350,000 active;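 active = replicate mean at a twofold rise or more, about +100% in these data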;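 note: firefly luciferase made from a UUG start codon reports start codon fidelity; reporter light over untreated wells divided by growth signal over untreated wells; some hits fall short of that in this replicate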
MT1-MMP act inh: MT1-MMP (human) activation inhibition; 0.061% of 360,000 active; HT1080 RFP-PRO-GFP cells, GFP/RFP ratio fluorescence, overnight; percent of plate control window, DMSO zero; P50281; GFP/RFP ratio change, % at 20 µM;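 active = GFP/RFP ratio change of at least 30% with cell ATP level not reduced by more than half and red fluorescence within 50% of control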; note: strong numbers were not always called active
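Assay system: RFP-PRO-GFP reporter HT1080 cells; read-out basis: GFP/RFP fluorescence ratio; benchmarks: DMSO wells and RFP-L50D-GFP cells; doses: 20 µM single dose, 1% DMSO; schedule: overnight cell settling, then overnight compound exposure, 37 °C, 5% CO2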
eIF4H inh retest: recorded beside eIF4H inh, whose call it bears; inhibition, %; compound at 20 µM; confirmation average;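 mean of two retest wells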
PABP polyA inh retest: further read-out of PABP polyA inh, marked with its call; inhibition, %; compound at 20 µM; confirmation repeats;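 mean of two retest wells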
MT1-MMP act inh RFP: recorded beside MT1-MMP act inh, whose call it bears; RFP signal change, %; measured here: RFP expression control read;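 0 = vehicle wells; hits needed this value within 50% of zero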
The depositor's hits bear a star; i = inactive; ? = inconclusive; · = no result given; + = active, no number.

SMILES	Rce1 inh	CSC inhib	eIF4H inh	PABP polyA inh	Env fusion inh	UUG fidelity	MT1-MMP act inh	MT1-MMP act inh RFP	others
CC(=O)c1ccc(OC2(C)CCN(Cc3ccc(OC(F)(F)F)cc3)C2)cc1 (stereo unspecified)	·	·	·	·	25	-9	1	-1
Cc1cccc(NC(=S)N(CCCN2CCOCC2)Cc2cn(C)c3ccccc23)c1	i	5	-6	4	·	-18	4	0
COc1ccc(-n2nc3ccc(NS(C)(=O)=O)cc3n2)cc1Cl	·	-9	-2	9	·	·	4	8
O=C(CCNS(=O)(=O)c1cccs1)N1CCN(c2ccc(F)cc2)CC1	i	-6	-11	2	4	2	1	1
Cc1cc(C)c2nc(NNC(=O)c3ccc(S(=O)(=O)N4CCCCC4)cc3)sc2c1	i	102*	0	-9	·	-18	11	1
O=C1CC(c2ccco2)Sc2ccccc2N1 (stereo unspecified)	i	·	-8	-8	13	-10	4	8
CCCCc1nc2cc(C(=O)N3CCNC(=O)C3CC(=O)OC)ccc2o1 (stereo unspecified)	i	-16	-9	-5	-4	-6	0	4
CCCCCCCOc1ccc(C(=O)Nc2cccnc2)cc1	i	26	-4	12	-1	-11	2	-16
CSc1ncccc1C(=O)Nc1nc2ccc(F)cc2s1	i	-3	1	7	-37	·	-5	-4
Cc1[nH]n(-c2ccccc2)c(=O)c1N=Nc1ccc(C(=O)O)cc1	i	-10	-4	12	14	-12	4	0
O=C1CSC(=S)N1/N=C/C=C/c1ccccc1	i	-9	20	2	3	-6	2	8
CC(C)N1CCN(S(=O)(=O)c2ccc3ccccc3c2)CC1	+	-7	18	25	1	-8	4	4
CCOC(=O)c1c(C)c(C(=O)Nc2cc(OC)ccc2OC)c(C)n1CC	i	0	10	5	49	8	-7	-12
CCc1noc(C)c1C(=O)Nc1nc(-c2ccccc2)c(C(C)=O)s1	·	-1	·	·	·	-1	5	-1
Cc1ccc(NS(=O)(=O)c2ccc(NC(=O)c3cccs3)cc2)cc1	i	-3	6	-3	·	-14	1	-4
COc1ccc(/C=N/NC(=O)CCSc2nc3ccccc3s2)cc1	i	52	0	-24	19	·	-5	-15
COC(CNC(=O)c1cccc(-n2c(=S)[nH]c3cc(Cl)ccc3c2=O)c1)OC	i	-2	-2	-14	-27	-18	2	3
CC1(C)OC2OC(C(=O)N/N=C/c3cc(Br)ccc3O)C3OC(C)(C)OC3C2O1 (stereo unspecified)	i	15	-1	-8	7	-8	3	0
CCOC(=O)c1c(C)n(C)c2cc(CN(C)C)c(O)c(S(=O)(=O)c3ccccc3)c12	i	-10	63	40	13	·	-12	3	eIF4H inh retest=-7;PABP polyA inh retest=8
Cc1cc(Cl)ccc1NC(=O)CN1C(=O)C(=O)N(C2CCCC2)C1=O	·	·	·	·	-4	-6	0	1

3 entries picked at random from the list so far:
SMILES	Rce1 inh	CSC inhib	eIF4H inh	PABP polyA inh	Env fusion inh	UUG fidelity	MT1-MMP act inh	MT1-MMP act inh RFP	others
CC(C)N1CCN(S(=O)(=O)c2ccc3ccccc3c2)CC1	+	-7	18	25	1	-8	4	4
Cc1ccc(NS(=O)(=O)c2ccc(NC(=O)c3cccs3)cc2)cc1	i	-3	6	-3	·	-14	1	-4
O=C(CCNS(=O)(=O)c1cccs1)N1CCN(c2ccc(F)cc2)CC1	i	-6	-11	2	4	2	1	1

Following part.
SMILES	Rce1 inh	CSC inhib	eIF4H inh	PABP polyA inh	Env fusion inh	UUG fidelity	MT1-MMP act inh	MT1-MMP act inh RFP	others
COc1ccc(OCCn2cc(/C(N)=N/O)c3ccccc32)cc1	i	-5	-6	3	·	-21	0	0
CC1CCCCN1S(=O)(=O)c1csc(C(N)=O)c1 (stereo unspecified)	i	-10	-4	-8	-4	-14	1	-4
O=C(CCC(=O)Nc1nnc(C2CCCCC2)s1)NCc1ccccc1	i	-3	-7	-12	-3	·	0	0
COc1ccc(N=Cc2cc3c(cc2O)OC(N)=C(C#N)C3c2ccccc2)cc1 (stereo unspecified)	i	12	32	1	-8	·	-59	-7
CCOC(=O)CSc1n[nH]c(NC(C)=O)n1	i	-11	-14	3	5	·	6	11
O=C(N/N=C\c1ccncc1)c1ccccc1O	i	-5	0	?	-27	·	2	1
CC(=O)NNc1cc(C)nc(N)n1	i	-8	-2	8	9	-18	1	2
CC(C)CCNC(=O)NC(=O)COC(=O)CCN=C1NS(=O)(=O)c2ccccc21	i	-8	-2	-23	4	-4	1	1
S=c1[nH]nc2ccc3ccccc3n12	·	·	·	·	-108	-14	7	8
Cc1cc(S(=O)(=O)N2CCCC(C)C2)ccc1-n1cnnn1 (stereo unspecified)	i	-15	7	0	-10	-6	0	1
COc1cccc(N(CC(=O)NCC2CCCO2)C(=O)CNS(=O)(=O)c2ccccc2)c1 (stereo unspecified)	i	-4	-5	26	-7	·	2	4
CCc1ccc(NC(=O)CSc2nc(O)cc(=O)n2C2CCCC2)cc1	·	14	-1	4	-1	·	0	3
COc1cccc(OCC(=O)N2CCCc3ccccc32)c1	·	-5	-12	0	-12	-1	0	2
c1ccn2cc(-c3ccc4c(c3)OCO4)cc2c1	i	·	64*	46	6	·	1	8	eIF4H inh retest=70*;PABP polyA inh retest=35
Cc1cnc(C=O)c2cccc([N+](=O)[O-])c12	·	·	·	·	-1	-3	-3	-3
COc1cc2c(cc1OC)C(C)N(Cc1ccc3c(c1)OCO3)CC2 (stereo unspecified)	i	-11	21	49	·	-22	-1	5
CC(C)n1c(=S)[nH]c2cc(Cl)ccc21	i	-8	24	19	-18	·	19	19
Cc1ccc(NC(=O)Cc2ccccc2)c(C)c1	i	-11	-2	-4	·	·	·	·
CC(C)C(C(=O)NCC1CCCO1)N(C(=O)CNS(=O)(=O)c1ccccc1)C1CCCCC1 (stereo unspecified)	i	0	1	-4	2	-10	-2	1
N#CCSc1ccsc1C(=O)Nc1ccc(F)cc1	i	14	2	6	27	-1	3	-5
CCN(CC(=O)Nc1c(F)cccc1F)C(=O)c1cccc(S(=O)(=O)N(C)c2ccccc2)c1	i	6	·	·	-26	·	0	-3
N/C(=N\OC(=O)CCn1cccc(C(F)(F)F)c1=O)c1ccc(OC(F)(F)F)cc1	i	18	0	4	0	-26	0	0
O=C1C2=C(c3ccccc31)[N+](=O)C1CCCCC1N2[O-] (stereo unspecified)	i	-13	3	1	·	21	0	0
COc1ccc(NC(=O)Cn2nnc(C(=O)NCCc3ccc(OC)c(OC)c3)c2N)cc1	i	1	-2	1	-36	-11	4	6
Fc1ccc(CCNc2ncnc3[nH]ncc23)cc1	·	·	·	·	31	-31	-5	-24
O=C(O)CC(SCC(=O)Nc1ccc(Br)cc1)C(=O)O (stereo unspecified)	i	·	4	15	18	·	-1	5
CC1(C)C2CCC1(C)C(OC(=O)CCn1ccnc1)C2 (stereo unspecified)	i	-6	-6	-3	·	-11	3	2
CCCN(CCO)Cc1ccc(F)c(Br)c1	i	-13	0	-2	2	-3	-2	-2
O=C(CCCn1cnc([N+](=O)[O-])n1)Nc1ccc(F)c(Cl)c1	i	-3	6	-1	-16	·	4	1
Cc1cc(/C=C2/C(=O)NN(c3ccccc3)C2=O)c(C)n1-c1ccc(O)cc1	i	-9	6	-2	-397	·	4	-4
Cc1cc(Cl)c(S(=O)(=O)NC(C)C)cc1OCC(N)=O	i	2	-13	1	5	·	4	2
COc1ccc(/C=N/NC(=O)c2cc(-c3ccc(C)cc3C)nc3ccccc23)cc1COC(C)=O	i	-7	7	13	·	-5	0	-2
CNc1ccn(C2CCCO2)c(=O)n1 (stereo unspecified)	i	-5	-2	9	11	·	1	1
C=CCC[C@@H](Cc1ccc(F)cc1)C(=O)OCCNC(=O)[C@@H](CC=C)CC(=O)N[C@H](CO)Cc1ccccc1	·	·	·	·	1	-10	5	-10
O=C(CSc1cccc[n+]1[O-])NC1CCCCC1	·	-28	·	·	·	-21	1	3
CCOC(=O)c1c(C)c(C(=O)N2CCCCCC2)c(C)n1CC	i	-5	8	1	·	·	-4	-3
Cc1sc2ncn(CC(=O)NCCCC(=O)N3CCC(C(N)=O)CC3)c(=O)c2c1C	i	-14	3	-3	-12	-17	1	3
COc1ccc(CNC(=O)/C=C/c2ccccc2[N+](=O)[O-])cc1	i	35	7	1	?	·	-2	5
O=C(/C=C/[C@H]1O[C@@H](n2cnc3c(NC(=O)c4ccccc4)ncnc32)[C@H](O)[C@@H]1O)NCCCN1CCCC1=O	·	·	·	·	21	8	3	4
CNc1ccccc1C(=O)OCC(C)=O	i	1	3	-5	·	-19	2	7
O=C(COC(=O)Cn1cnc2ccccc21)Nc1cccc([N+](=O)[O-])c1	i	4	-4	?	12	-24	-2	-2
O=S(=O)(c1ccccc1)c1cc(O)ccc1O	i	·	2	-11	6	-13	1	0
COc1ccc(S(=O)(=O)N2CCCCC2)cc1NC(=O)CSc1ncccn1	·	-20	·	·	23	2	-1	-3
Cc1nc2ccccn2c1C(=O)NNS(=O)(=O)c1ccc(Cl)cc1	i	2	0	0	-8	·	0	-13
O=C(NCCCc1ccccc1)C1CCN(S(=O)(=O)c2ccc(F)cc2)CC1	i	-6	0	-2	-7	25	-2	-3
Cc1nc(N)nc(SCc2ccc([N+](=O)[O-])cc2)c1N	i	-9	27	7	12	·	0	-1
CCC(C)C(=O)Nc1ccc(S(=O)(=O)Nc2nccs2)cc1 (stereo unspecified)	i	3	9	-1	0	-5	1	-1
O=C(c1cccc(-c2cncc3nccn23)c1)N1CCOCC1	·	·	·	·	3	-21	-1	-2
O=C(CCS(=O)(=O)c1ccc(Cl)cc1)Nc1ccccc1Br	i	-13	-11	1	3	-21	6	7
COc1ccc(/C=N/N2CCOCC2)cc1COc1ccc(Cl)cc1	i	9	-2	?	-15	·	-5	-2
CC(OC(=O)CN1C(=O)NC2(CCCC2)C1=O)c1ccc(F)cc1 (stereo unspecified)	·	-4	·	·	-3	-11	1	-2
Cn1nnnc1SC(C(=O)Nc1cccc(C(F)(F)F)c1)c1ccccc1 (stereo unspecified)	i	4	-1	4	·	7	2	2
Cc1ccc(N(Cc2cc(=O)[nH]c3ccccc23)C(=O)C(C)C)c(C)c1	i	1	1	-7	10	7	-4	0
CC(C)(C)OC(=O)NCCCC[C@H](NC(=O)c1nc[nH]c1C(=O)NCc1ccc(CNC(=O)OC(C)(C)C)cc1)C(=O)OC(C)(C)C	i	3	6	-8	-8	-12	3	-22
OC(Cc1ccccc1Br)c1ncc(-c2ccc(Cl)cc2)[nH]1 (stereo unspecified)	·	·	·	·	-9	-8	-3	-4
Cc1nn(-c2ccccc2)c2c1C(c1ccc(O)c(O)c1)N1C(=N2)C(Nc2ccccc2)=Nc2ccccc21 (stereo unspecified)	i	90*	26	26	·	3	3	2
CC(C)(C)C1=CC(=O)C(N2CCOCC2)=CC1=O	i	-7	-4	6	·	-10	4	8
COc1cc(C(=O)N/N=C/c2cn(Cc3cccc(F)c3)c3ccccc23)ccc1O	i	7	7	-1	7	-6	6	-5
COc1ccc(N2CC(C)Cn3c2nc2c3c(=O)n(CCc3ccccc3)c(=O)n2C)cc1 (stereo unspecified)	i	·	2	-12	-14	15	-5	-9

Ordered by molecular weight (smallest number first): part of the list above.
SMILES	Rce1 inh	CSC inhib	eIF4H inh	PABP polyA inh	Env fusion inh	UUG fidelity	MT1-MMP act inh	MT1-MMP act inh RFP	others
Cc1nc(N)nc(SCc2ccc([N+](=O)[O-])cc2)c1N	i	-9	27	7	12	·	0	-1
CCC(C)C(=O)Nc1ccc(S(=O)(=O)Nc2nccs2)cc1 (stereo unspecified)	i	3	9	-1	0	-5	1	-1
Cc1nc2ccccn2c1C(=O)NNS(=O)(=O)c1ccc(Cl)cc1	i	2	0	0	-8	·	0	-13

Screening data (PubChem BioAssay)
